Screens deposited in PubChem BioAssay by Broad Institute.
ID4 SMM: binds human ID4 protein on microarray; P47928; small molecule microarray, Flag-ID4 binding, fluorescence F/B; calls only; 1.2% of 31,000 active;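 active = spot signal over background at p below 0.07 in all four prints; compounds were printed on slides so no solution concentration is given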;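 note: a binder raises fluorescence above local background on the spot; about 2 pmol printed per array spot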
Target sequence (P47928 whole entry, looked up): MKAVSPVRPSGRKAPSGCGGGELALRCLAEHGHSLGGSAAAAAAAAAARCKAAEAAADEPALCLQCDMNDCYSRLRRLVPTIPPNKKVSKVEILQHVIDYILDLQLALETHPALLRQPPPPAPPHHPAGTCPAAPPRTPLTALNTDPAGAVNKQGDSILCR
Calls only; i = inactive; + = active, no number.

The opening 7 entries (preview)
SMILES | ID4 SMM
CC1(C)CC(n2c(SCC(=O)c3ccc(Cl)cc3)nc3ccccc3c2=O)CCO1 (stereo not drawn) | i
O=C(CNS(=O)(=O)c1cc(Cl)ccc1Cl)Nc1ccc(Cl)cc1 | i
COc1ccccc1-n1nnnc1SCC(=O)Nc1cc(OC)c(OC)c(OC)c1 | i
Cc1cc(Br)c(NC(=O)CSc2nnc(N)s2)cc1C | i
Cc1ccc(NS(=O)(=O)c2cc(C(=O)Nc3ccccc3C(=O)N3CCOCC3)ccc2Cl)c(C)c1 | i
CCOc1ccccc1-c1nc(SCC(=O)N2c3ccccc3Sc3ccccc32)n[nH]1 | i
COc1ccc(OC)c(S(=O)(=O)Nc2ccc(NC(C)=O)cc2)c1 | i

This part in full, from the start:
SMILES | ID4 SMM
CC1(C)CC(n2c(SCC(=O)c3ccc(Cl)cc3)nc3ccccc3c2=O)CCO1 (stereo not drawn) | i
O=C(CNS(=O)(=O)c1cc(Cl)ccc1Cl)Nc1ccc(Cl)cc1 | i
COc1ccccc1-n1nnnc1SCC(=O)Nc1cc(OC)c(OC)c(OC)c1 | i
Cc1cc(Br)c(NC(=O)CSc2nnc(N)s2)cc1C | i
Cc1ccc(NS(=O)(=O)c2cc(C(=O)Nc3ccccc3C(=O)N3CCOCC3)ccc2Cl)c(C)c1 | i
CCOc1ccccc1-c1nc(SCC(=O)N2c3ccccc3Sc3ccccc32)n[nH]1 | i
COc1ccc(OC)c(S(=O)(=O)Nc2ccc(NC(C)=O)cc2)c1 | i
CCN(CC)C(=O)c1sc(NC(=S)Nc2cnccn2)c(C(=O)OC)c1C | i
CN(C)C(=O)C[C@H]1CC[C@@H](NC(=O)C2CC2)[C@H](CO)O1 | i
C[C@H]1CN([C@@H](C)CO)C(=O)Cc2cc(N(C)C)ccc2O[C@@H]1CN(C)CC1CC1 | i
CC(C)(C)c1ccc(S(=O)(=O)NCCC(=O)O)cc1 | i
COCC#Cc1ccc2c(c1)O[C@@H](CN(C)CC1CCCC1)[C@H](C)CN([C@H](C)CO)S2(=O)=O | i
COc1ccc(NC(=O)C(=O)NCC(=O)Nc2ccc(OC)c(Cl)c2)cc1 | i
Cc1cccc(S(=O)(=O)N(C)C[C@H]2OCc3ccccc3-c3ccccc3C(=O)N([C@H](C)CO)C[C@@H]2C)c1 | i
C[C@H]1CN([C@@H](C)CO)C(=O)c2cc(NC(=O)C3CC3)ccc2O[C@H]1CN(C)Cc1ccccc1 | i
O=C(C[C@@H]1CC[C@H](NC(=O)CN2CCOCC2)[C@@H](CO)O1)NCCc1ccncc1 | i
C[C@H](CO)N1C[C@H](C)[C@@H](CN(C)C(=O)NC2CCCCC2)Oc2cc(-c3cccnc3)ccc2S1(=O)=O | i
COC(Cn1c(SCC(=O)c2cccc(C(F)(F)F)c2)nnc1-c1ccc(Cl)cc1)OC | i
COC(=O)c1cc(OC)c(OC)cc1NC(=O)CSc1nc2ccccc2o1 | i
C[C@H](CO)N1C[C@H](C)[C@H](CN(C)C(=O)c2ccccc2)OCc2ccccc2-c2ccccc2C1=O | i
NC(=O)C1CCN(C(=O)CSc2nnnn2-c2ccccc2)CC1 | i
C/C=C/c1ccc2c(c1)O[C@H](CN(C)CC1CCOCC1)[C@H](C)CN([C@H](C)CO)S2(=O)=O | i
Cc1ccc(OCC(=O)NCc2ccco2)cc1C | i
C/C=C/c1ccc2c(c1)O[C@@H](CN(C)C)[C@H](C)CN([C@@H](C)CO)S2(=O)=O | i
Cc1c(Cl)ccc2c(C(=O)NCCN3CCCCC3)cc(-c3ccccn3)nc12 | i
c1cncc(-c2nn3c(C4COc5ccccc5O4)nnc3s2)c1 (stereo not drawn) | i
COc1ccc(OC)c(NC(=O)COc2ccc3c(-c4ccccc4)cc(=O)oc3c2)c1 | i
C[C@@H]1CN([C@H](C)CO)C(=O)c2cc(-c3cccc(F)c3)cnc2O[C@H]1CN(C)Cc1cccnc1 | i
CC1SC2(CCCCC2)N(c2ccc(Cl)cc2)C1=O (stereo not drawn) | i
O=C(C[C@@H]1C=C[C@H](NC(=O)Cc2ccccn2)[C@@H](CO)O1)NCCCN1CCOCC1 | i
O=C(CN1CCOCC1)Nc1ccc(NC(=O)CN2CCOCC2)c(Cl)c1 | i
COc1c(Cl)cc(C(=O)Nc2sc3c(c2C(=O)NCc2ccco2)CCC3)cc1Cl | i
C[C@@H]1CN([C@H](C)CO)C(=O)c2cc(C#Cc3ccc(F)cc3)cnc2O[C@@H]1CN(C)CC1CC1 | i
COc1ccc(NC(=O)Cn2c([N+](=O)[O-])cnc2C)c(OC)c1 | i
Cc1ccc(OCC(=O)Nc2cc(-c3nc4cc(Cl)ccc4o3)ccc2C)c(C)c1 | i
COc1ccccc1-c1ccc2c(c1)O[C@H](CN(C)S(=O)(=O)c1ccc(C)cc1)[C@@H](C)CN([C@@H](C)CO)S2(=O)=O | i
O=C(c1c(O)c2ccc(Cl)cc2[nH]c1=O)C1CC1 | i
C[C@@H]1CN([C@H](C)CO)C(=O)c2cc(C#CCN(C)C)cnc2O[C@H]1CN(C)C(=O)c1cccc(F)c1 | i
O=C(COc1ccccc1Cl)Nc1ccc2oc(-c3ccccc3Br)nc2c1 | i
CC(=O)Nc1ccc(NC(=O)C(C)n2nc(C)c([N+](=O)[O-])c2C)cc1 (stereo not drawn) | i

Shown as a markdown table: entries from further up.
| SMILES | ID4 SMM |
| --- | --- |
| COc1ccc(NC(=O)Cn2c([N+](=O)[O-])cnc2C)c(OC)c1 | i |
| Cc1ccc(OCC(=O)Nc2cc(-c3nc4cc(Cl)ccc4o3)ccc2C)c(C)c1 | i |
| COc1ccccc1-c1ccc2c(c1)O[C@H](CN(C)S(=O)(=O)c1ccc(C)cc1)[C@@H](C)CN([C@@H](C)CO)S2(=O)=O | i |
| O=C(c1c(O)c2ccc(Cl)cc2[nH]c1=O)C1CC1 | i |
| C[C@@H]1CN([C@H](C)CO)C(=O)c2cc(C#CCN(C)C)cnc2O[C@H]1CN(C)C(=O)c1cccc(F)c1 | i |
| O=C(COc1ccccc1Cl)Nc1ccc2oc(-c3ccccc3Br)nc2c1 | i |

The list continues:
SMILES | ID4 SMM
CCOC(=O)c1c(NC(=O)CSc2nccc(C)n2)sc(C)c1C | i
C[C@@H]1CN([C@@H](C)CO)C(=O)c2cc(/C=C/c3ccccc3)cnc2O[C@H]1CN(C)C(=O)Cc1cccnc1 | i
O=C(Cc1ccccc1)N[C@H]1C=C[C@H](CC(=O)N2CCCCC2)O[C@@H]1CO | i
c1ccc([C@H]2CN3CCSC3=N2)cc1 | i
O=[N+]([O-])c1ccc(S(=O)(=O)CC(CN2CCOCC2)N2CCOCC2)cc1 (stereo not drawn) | i
Cc1cc([N+](=O)[O-])ccc1NC(=O)CSc1nccc(=O)[nH]1 | i
O=[N+]([O-])c1ccc(S(=O)(=O)NCc2cccnc2)cc1 | i
CCOc1ccc(NC(=O)C(C)Sc2nc3ccccc3s2)cc1 (stereo not drawn) | i
Cc1ccccc1-c1ccc2c(c1)O[C@H](CN(C)C)[C@H](C)CN([C@@H](C)CO)S2(=O)=O | i
C[C@H](CO)N1C[C@H](C)[C@@H](CN(C)Cc2ccccc2)Oc2ncc(C#CCN(C)C)cc2C1=O | i
O=C(CCN1CCCCC1)N[C@@H]1CC[C@@H](CC(=O)N2CCC(Cc3ccccc3)CC2)O[C@@H]1CO | i
CN(CC(=O)Nc1ccccc1-c1ccccc1)S(=O)(=O)c1ccc(Br)cc1 | i
CC(C)(C)NCC(O)c1cc(O)cc(O)c1 (stereo not drawn) | i
COc1ccc(S(=O)(=O)N(C)CC(=O)Nc2ccccc2F)cc1C | i
COc1ccccc1N1C(=O)C2C(c3ccc(F)cc3)NC(Cc3ccccc3)(C(=O)O)C2C1=O (stereo not drawn) | i
COC(=O)c1c(NC(=O)CC2NCCNC2=O)sc2c1CCCC2 (stereo not drawn) | i
C[C@H]1CN([C@@H](C)CO)C(=O)c2ccccc2-c2ccccc2CO[C@H]1CN(C)CC1CC1 | i
CC1(C(=O)NCCCn2ccnc2)CC1(Cl)Cl (stereo not drawn) | i
CCN(CC(=O)Nc1cccc([N+](=O)[O-])c1)S(=O)(=O)c1ccc(F)cc1 | i
COc1ccccc1NC(=O)N[C@@H]1CC[C@H](CC(=O)NCc2ccc(Cl)c(Cl)c2)O[C@H]1CO | i
CCN(CC(=O)Nc1ccc(I)cc1)S(=O)(=O)c1ccc(C)cc1 | i
COC(=O)c1ccc(NC(=O)CN(c2ccc3c(c2)OCCO3)S(C)(=O)=O)cc1 | i
COC(=O)c1cc(NC(=S)NCc2cccnc2)cc(C(=O)OC)c1 | i
O=C(C[C@H]1CC[C@@H](NC(=O)C2CCC2)[C@@H](CO)O1)NCCCN1CCOCC1 | +
O=C(C[C@@H]1CC[C@H](NC(=O)c2cnccn2)[C@H](CO)O1)NCc1ccccc1F | i
Cc1c(Br)c([N+](=O)[O-])nn1C(C)C(=O)NCC1CCCO1 (stereo not drawn) | i
CC1CCc2c(sc3ncn(CC(=O)Nc4ccccc4C(F)(F)F)c(=O)c23)C1 (stereo not drawn) | i
Cn1c(SCC(N)=O)nnc1-c1cccc(Cl)c1 | i
COc1ccc(-c2cc(C(F)(F)F)nc(SCC(=O)Nc3ccccc3C)n2)cc1 | i
C[C@@H]1CN([C@@H](C)CO)C(=O)c2cc(C#Cc3cccnc3)cnc2O[C@H]1CN(C)C | i
COc1ccc(NC(=O)CN(C)S(=O)(=O)c2ccc(F)cc2)cc1OC | i
CCCC#Cc1cnc2c(c1)C(=O)N([C@@H](C)CO)C[C@@H](C)[C@@H](CN(C)C(=O)Cc1ccccc1)O2 | i
CS(=O)(=O)Nc1ccc2c(c1)[C@@H]1C[C@H](CC(=O)NCc3ccncc3)O[C@H](CO)[C@@H]1O2 | i
CCOC(=O)CSc1nnc(-c2ccc(OC)cc2)n1-c1ccccc1C | i
COc1ccc(S(=O)(=O)NCc2ccco2)c(Cl)c1Cl | i
C[C@@H]1CN([C@H](C)CO)C(=O)c2cc(C3=CCCC3)cnc2O[C@H]1CN(C)C(=O)C1CC1 | i
CCOC(=O)c1c(NC(=O)c2ccc(S(=O)(=O)N3CCOCC3)cc2)sc(C(C)=O)c1C | i
COc1ccc(S(=O)(=O)N[C@@H]2C=C[C@H](CC(=O)NCCc3ccccc3)O[C@@H]2CO)cc1 | i
CCC(=O)N(C)C[C@H]1Oc2ncc(-c3ccccc3OC)cc2C(=O)N([C@@H](C)CO)C[C@@H]1C | i
COc1cccc(CNC(=O)C[C@H]2CC[C@H](NC(=O)C3CCC3)[C@H](CO)O2)c1 | i
O=C(CSc1nc2ccc([N+](=O)[O-])cc2s1)Nc1ccc(Br)cc1Cl | i
COC(=O)c1ccc(C(=O)OC)c(NC(=O)COc2ccc3oc4c(c3c2)CCCC4)c1 | i
CS(=O)(=O)N(CC(=O)NC1CCCCCC1)c1ccc(I)cc1 | i
CSc1ccccc1NC(=O)Cn1ccc([N+](=O)[O-])n1 | i
Cc1ccc(-n2nnnc2SCC(=O)c2ccc(O)c(O)c2)cc1 | i
Cc1cccc(C(=O)Nc2cc(C)ccc2NC(=O)COc2ccccc2)c1 | i
O=C1CC(Cc2ccc(Cl)cc2)C(=O)N1c1ccccn1 (stereo not drawn) | i
CC(=O)c1ccc(NC(=O)CSc2nnc(N)s2)cc1 | i
CO[C@@H](CN(C)Cc1nccs1)[C@@H](C)CN([C@@H](C)CO)S(=O)(=O)c1ccc(C)cc1 | i
O=C(COc1ccc(Cl)cc1)Nc1ccc2nn(-c3ccc(F)cc3)nc2c1 | i
Cc1sc2ncnc(SCC(=O)c3ccc(Cl)c(Cl)c3)c2c1C | i
C[C@H](NC(=O)C[C@H]1CC[C@H](NC(=O)c2cccnc2)[C@H](CO)O1)c1ccccc1 | i
Nc1cc(N)nc(SCC(=O)Nc2ccc3ccccc3c2)n1 | i
COc1ccc(NC(=O)c2cc(-c3ccccn3)nc3c(C)cc(C)cc23)c([N+](=O)[O-])c1 | i
C[C@@H]1CN([C@@H](C)CO)C(=O)c2cc(-c3cccnc3)cnc2O[C@@H]1CN(C)C(=O)C1CCC1 | i
O=C(C[C@@H]1CC[C@@H](NC(=O)C2CCC2)[C@@H](CO)O1)NC1CCC1 | i
C[C@H]1CN([C@@H](C)CO)S(=O)(=O)c2ccc(-c3cncnc3)cc2O[C@H]1CN(C)C(=O)Cc1ccncc1 | i
Cc1ccc([N+](=O)[O-])cc1NC(=O)C(C)NS(=O)(=O)c1ccc(F)cc1 (stereo not drawn) | i
C[C@@H]1CN([C@H](C)CO)S(=O)(=O)c2ccc(C#CCC3CCCC3)cc2O[C@@H]1CN(C)C(=O)c1ccccn1 | i
O=C(CSc1nnc(-c2ccco2)n1-c1ccccc1)N1CCOCC1 | i

The results go on:
SMILES | ID4 SMM
Cc1cccc(N(CC(=O)Nc2ccccc2-c2ccccc2)S(C)(=O)=O)c1C | i
C[C@H]1CN([C@@H](C)CO)S(=O)(=O)c2ccc(C#CC3CC3)cc2O[C@H]1CN(C)CC1CC1 | i
C=CCNC(=O)CSc1nnc(-c2ccc3nonc3c2)n1C | i
C[C@H]1CN([C@@H](C)CO)C(=O)c2cc(C#CC3CC3)cnc2O[C@H]1CN(C)Cc1ccncc1 | i
Cc1ccc(OCC(=O)Nc2ccc3oc(-c4cccnc4)nc3c2)cc1C | i
O=C(COc1ccc(Cl)cc1Cl)Nc1ccc(-c2nc3ccccc3s2)c(O)c1 | i
O=C(CSC1CC(=O)N(c2cccc(Cl)c2)C1=O)Nc1ccc(Br)cc1 (stereo not drawn) | i
O=C(C[C@@H]1CC[C@H](NC(=O)Nc2ccc3c(c2)OCO3)[C@H](CO)O1)NCc1ccc(Cl)cc1 | i
Cc1ccc(NC(=O)c2ccc(OC(=O)CCN3C(=O)c4ccccc4C3=O)cc2)cc1 | i
Cc1oc2nc(SCC(=O)NC3CCCCC3)nc(N)c2c1C | i
CCC(=O)Nc1ccc(Cl)c(NC(=O)COc2ccccc2C)c1 | i
O=C(CSc1n[nH]c(-c2ccc(Cl)cc2)n1)Nc1c(F)cc(F)cc1Br | i
CN(C)/C=C(\C(=O)Nc1ccc(F)c(F)c1F)S(=O)(=O)c1ccccc1 | i
COc1ccc(NC(=O)CNC(=O)c2ccco2)cc1Cl | i

A portion of the library; rates above refer to the full screens.
